# Screening results (PubChem BioAssay)
# HNF4A DNA FP: change in binding of human HNF4 alpha to DNA | P41235 | HNF4a-FITC DNA binding, fluorescence polarization, 1 h | activity change, % at 10 µM | 0.3% of 360,000 active; in the data active means activity change above about 30%, passing the limit was not always enough;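 further: controls were the assay level and a saturating level of protein; the project sought stronger binding though the title names inhibitors; some compounds called inactive have numbers as strong as hits; positive values seem to mean higher polarization but the record does not say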
# Target sequence (P41235 whole entry, looked up): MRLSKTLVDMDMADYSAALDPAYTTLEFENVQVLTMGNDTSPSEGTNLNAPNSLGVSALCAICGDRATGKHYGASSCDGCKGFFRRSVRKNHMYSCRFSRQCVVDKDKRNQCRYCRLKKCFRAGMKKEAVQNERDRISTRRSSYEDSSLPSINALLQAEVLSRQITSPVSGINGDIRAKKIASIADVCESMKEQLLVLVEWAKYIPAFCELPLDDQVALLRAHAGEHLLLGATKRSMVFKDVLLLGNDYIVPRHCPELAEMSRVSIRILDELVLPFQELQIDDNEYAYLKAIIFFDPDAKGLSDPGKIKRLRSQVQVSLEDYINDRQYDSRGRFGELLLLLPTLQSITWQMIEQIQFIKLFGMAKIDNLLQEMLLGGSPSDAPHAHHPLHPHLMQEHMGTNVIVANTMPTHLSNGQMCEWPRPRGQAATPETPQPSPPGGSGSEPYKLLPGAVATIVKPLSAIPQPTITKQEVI
# ALR inh: human ALR oxidase inhibition via reduced H2O2; AID 485317; P55789; inhibition, % (no concentration beside the values); purified ALR, DTT oxidation, H2O2 HRP-luminol luminescence; 3.8% of 290,000 active;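 active means mean and each replicate at 75% or more; inconclusive means only one of the two met; inactive means neither met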;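 further: stock transfer was 7.5 nL into about 7.5 µL; 0% = neutral wells and 100% = wells with inactivated enzyme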
# FGF22 binding: FGF22 (human) thermal shift binding | recombinant FGF22 thermal shift, SYPRO orange fluorescence; percent of sucrose octasulfate shift, DMSO zero | calls only at 9.99 µM | 1.5% of 340,000 active;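 active means melting point raised past a set limit in the mean and every replicate; inconclusive means no clear call; three in four hits are not shown here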
# Target sequence (Q9HCT0 whole entry, looked up): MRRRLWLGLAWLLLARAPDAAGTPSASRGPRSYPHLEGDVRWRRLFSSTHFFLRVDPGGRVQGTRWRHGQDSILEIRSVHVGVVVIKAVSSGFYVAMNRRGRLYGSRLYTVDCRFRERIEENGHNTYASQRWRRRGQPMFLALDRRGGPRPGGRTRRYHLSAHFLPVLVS
# B2AR ag: human beta-2 adrenergic receptor agonism by FAP | 0.43% of 340,000 active | P07550 | response, % (no concentration beside the values) | Am2.2-beta2AR cells, FAP receptor internalization, flow cytometry; reference of the scale not given here;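 active means response above a set limit, near 3 SD of response in nonfluorescent compounds, cut at about 42% in these data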;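 further: stock transfer was 100 nL into about 11 µL; a reference agonist was the positive control; negative values mostly stem from fluorescent compounds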
# UCH37 inh: blocks the human deubiquitinase UCH37; Q9Y5K5; purified proteasome/UCH37, Ub-AMC cleavage fluorescence; inhibition, % (test concentration not listed); 0.33% of 330,000 active;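 active means mean of two replicates above 20%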;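 further: 0% = compound-free wells with enzyme and 100% = wells lacking proteasome; stock transfer was 100 nL into about 20 µL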
# Target sequence (Q9Y5K5 whole entry, looked up): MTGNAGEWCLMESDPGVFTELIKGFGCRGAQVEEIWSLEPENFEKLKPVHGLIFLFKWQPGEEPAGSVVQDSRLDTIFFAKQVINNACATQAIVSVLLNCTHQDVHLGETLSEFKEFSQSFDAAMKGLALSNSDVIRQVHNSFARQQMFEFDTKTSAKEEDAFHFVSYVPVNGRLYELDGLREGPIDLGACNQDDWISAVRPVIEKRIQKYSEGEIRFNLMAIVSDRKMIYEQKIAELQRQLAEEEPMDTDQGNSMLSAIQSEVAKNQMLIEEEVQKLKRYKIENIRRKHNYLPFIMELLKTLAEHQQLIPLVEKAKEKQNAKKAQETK
#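 Assay system: Proteasome-bound UCH37. Buffer or medium: pH 7.4 Tris-HCl (50 mM) with ovalbumin, ATP-MgCl2, DTT. Incubation: 30 min preincubation with enzyme, 25 min cleavage at room temperature. Measured by: fluorescence, ex 355 nm, em 460 nm. Read-out basis: percent inhibition. Control set: wells without proteasome as full block, compound-free enzyme plus substrate as uninhibited.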
# LANA-H2B inh: blocks KSHV LANA binding to histone H2A/H2B; cell-free LANA-H2A/H2B peptide, fluorescence polarization; inhibition, % (test concentration not listed); 0.6% of 320,000 active; in the data active means inhibition mostly above about 10%, no sharp cut-off; inactive means mostly below about 6.7%;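 further: stock transfer was 7.5 nL into about 10 µL; 0% = median of vehicle wells and 100% = median of positive control wells; one replicate is shown; the record names a cut of 25% in any replicate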
# E coli growth: E. coli growth inhibition. Escherichia coli growth, OD600, 23 h; stronger effect = lower value. OD600 absorbance (test concentration not listed). 0.21% of 330,000 active. AID 1053175;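 active means OD600 absorbance below the run mean of sample wells minus 3.6 SD, in any replicate, cut at about 0.56 in these data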;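 further: stock transfer was 300 nL into about 60 µL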
# * marks the source's active call; other numbers are inactive results; i = inactive; ? = inconclusive; nt = not tested or not shown; + = active, no number. Only part of the results is shown; rates above refer to the full screens.
compound,FGF22 binding,B2AR ag,ALR inh,E coli growth,LANA-H2B inh,UCH37 inh,HNF4A DNA FP
CCC(Sc1nc(N)c(NC(=O)c2ccc(Br)o2)c(=O)[nH]1)C(=O)O (stereo unspecified),i,2.7,-4.8,0.72,6.7,3.3,-3.5
O=C(Nc1scc(-c2ccccc2)c1C(=O)O)c1ccccc1F,i,7.0,nt,0.693,-1.7,3.9,0.6
Cc1ccc(-c2cc(C(=O)NCc3cnn(C)c3)c3cc(Br)ccc3n2)cc1,nt,-24.2,-2.4,0.694,6.1,-0.2,-0.8
COc1cc(/C=N/NC(=O)c2ccccn2)ccc1OC(=O)c1cccs1,i,18.0,1.4,nt,2.9,nt,-2.2
CCC(C)C(N)C(=O)N1CCCC1C(=O)NC(C(=O)O)C(C)CC (stereo unspecified),i,-7.6,nt,nt,nt,nt,-0.9
COc1ccc(N(C(=O)c2ccco2)C(C(=O)NC2CCCC2)c2cccnc2)c(OC)c1 (stereo unspecified),i,3.2,-14.7,0.68,0.5,1.6,-0.6
C#CCOCCOCCOCCNc1nc(N2CCN(C(=O)C([C@@H](C)CC)n3cc(C(N)COC(=O)C(F)(F)F)nn3)CC2)nc(N2CCN(C(=O)[C@H](Cc3ccc(O)cc3)n3cc(C(N)[C@H](C)CC)nn3)CC2)n1 (stereo partly specified),i,nt,-7.8,nt,4.1,3.3,nt
CCN(CC)c1ccc(NC(=O)CN2CCN(CC(=O)Nc3ccc(OC)cc3)CC2)cc1,i,8.1,?,0.666,2.3,0.7,-1.4
COc1ccccc1C1C(C#N)=C(N)Oc2c1c(-c1ccccc1)nn2-c1ccccc1 (stereo unspecified),nt,-7.6,-3.2,0.702,3.2,0.4,-2.1
COc1cc(OC)c(S(=O)(=O)Nc2ccc(C(=O)O)cc2)cc1S(=O)(=O)Nc1ccc(C(=O)O)cc1,i,-3.9,2.5,0.682,4.0,2.5,-4.2
CC(NC(=O)c1ccccc1)C(=O)N/N=C/c1ccccc1 (stereo unspecified),i,-6.4,-2.5,nt,-0.2,nt,2.2
CCOC(=O)c1c(NC(=O)OC)sc2c1CCC2,nt,1.2,16.9,0.729,-3.5,-1.7,0.7
O=C(Nc1cccnc1Cl)c1cc(-c2ccc(Cl)cc2)on1,i,16.6,-1.0,0.68,-0.6,-0.4,-0.7
Cc1cccc(OC2(c3ccccc3)OC(=O)c3ccccc32)c1C (stereo unspecified),nt,11.6,nt,0.722,-0.1,2.7,10.4
CCOC(=O)CCCNC(=O)CN1C(=O)NC(c2ccccc2)(c2ccccc2)C1=O,i,15.0,1.8,0.697,4.9,0.3,1.6
COc1ccccc1NC(=O)CCN1CCN(c2ccc(Cl)cc2)CC1,i,-10.3,89.1*,0.664,10.0,3.4,0.6
O=C(NCCN1CCCC1)c1cc(-c2ccncc2)nc2ccc(S(=O)(=O)N3CCOCC3)cc12,nt,-6.5,-24.5,0.718,6.1,2.0,-1.1
N#Cc1c(NC(=O)CSc2ncn[nH]2)sc2c1CCCC2,nt,-7.6,nt,0.669,1.3,2.4,4.5
O=C(/C=C/C=C/c1ccccc1)CC1(O)C(=O)N(CCc2ccccc2)c2ccccc21 (stereo unspecified),nt,93.1*,2.0,0.729,4.5,nt,0.5
CC1CCC(=O)N(CCC#N)CC1 (stereo unspecified),i,0.5,4.7,0.751,3.6,-0.8,-4.5
CCCCC1(Cc2cccc([N+](=O)[O-])c2)C(=O)N(c2ccccc2)N(c2ccccc2)C1=O,nt,-5.5,nt,0.722,-2.3,1.4,3.6
O=[N+]([O-])c1ccccc1Nc1nc(-c2cccnc2)cs1,i,-13.7,0.4,0.668,-3.1,5.7,-1.4
COCCCNC(NC(=O)c1ccc(C)cc1)C(Cl)(Cl)Cl (stereo unspecified),nt,-9.9,10.6,0.699,-0.9,2.0,0.9
COCCCn1c(=O)c2ccccc2n(Cc2ccccc2C)c1=O,i,3.4,-2.1,0.655,4.1,1.7,-5.2
CN(C)S(=O)(=O)c1cc(NC(=O)COC(=O)CC2CC3CCC2C3)ccc1Cl (stereo unspecified),i,1.9,nt,0.671,10.9,2.4,1.8
CC(C)(C)OC(=O)NC(Cc1ccccc1)C(=O)O (stereo unspecified),i,14.3,-2.9,0.643,-2.9,0.2,-3.5
Cc1nc(N)[nH]c(=O)c1CCCNS(=O)(=O)c1ccc([N+](=O)[O-])cc1,i,-3.4,nt,0.676,nt,1.5,2.1
CC(=O)c1sc(NC(=O)CSCc2c(C)noc2C)nc1-c1ccccc1,i,4.8,-2.7,0.686,-2.0,8.2,-1.5
O=C(/C=C/c1ccc(N2CCOCC2)cc1)c1ccccc1,i,6.5,48.4,0.695,-2.8,-0.3,9.8
Oc1ccc(/C=N/Nc2ccc3ccccc3c2)c(O)c1,i,17.6,-5.1,nt,2.1,nt,6.5
c1ccc(-n2nnnc2N2CCOCC2)cc1,nt,-0.7,-14.9,0.78,-1.8,-0.6,3.5
CC12CC3CC(C)(C1)CC(C(=O)NCc1ccco1)(C3)C2,i,2.4,3.7,0.72,-1.7,2.4,0.7
CC[C@H](C)[C@@H](C(=O)NCCCCCCCCCCC(=O)N1CCNCC1)n1cc(CCCCN=C(N)N)nn1,i,-2.5,-33.1,nt,0.5,5.2,3.0
COc1ccc(C2c3ccc(O)cc3Oc3ncn(CC(C)C)c(=N)c32)cc1 (stereo unspecified),i,-3.3,-22.8,0.667,3.0,1.4,-9.7
Nc1cc(=O)nc(SCc2ccccc2)n1Cc1ccco1,nt,-6.7,-8.3,0.749,1.5,5.3,0.6
COc1ccccc1NC(=O)c1ccc(S(=O)(=O)N2CCCC(C)C2)cc1 (stereo unspecified),i,13.2,0.0,0.687,1.1,1.8,0.0
Cn1c(=O)cc(SCC(=O)NCC2COc3ccccc3O2)c2ccccc21 (stereo unspecified),nt,-10.2,-2.3,0.703,-4.2,6.2,-1.7
CCOc1ccc(CCNC(=O)c2cccc(NC3=NC4CS(=O)(=O)CC4S3)c2)cc1OCC (stereo unspecified),i,-3.1,nt,0.769,-8.4,6.4,-0.9
O=C(CNCc1cccs1)NC12CC3CC(CC(C3)C1)C2,i,-1.3,-6.7,0.684,2.3,3.8,-0.7
CCOc1ccc(S(=O)(=O)NCCC(=O)NC2CCCCC2)cc1,i,-3.5,-7.7,0.694,-8.5,1.2,1.5
O=C(NCCSc1c[nH]c2ccccc12)c1ccc(Br)o1,i,-4.8,46.7,0.752,-8.1,3.6,-1.8
CCCCN(C(=O)C1CCN(C(=O)c2ccccc2C)CC1)c1c(N)n(CCCC)c(=O)[nH]c1=O,i,-1.4,0.2,0.676,-0.2,1.1,-2.2
Cc1ccc(/C=N/N2CCN(c3ccccc3)CC2)cc1,i,-0.9,-8.0,nt,0.6,nt,-0.2
Cc1noc(NC(=O)c2ccccc2Cl)c1C#N,nt,-1.3,3.3,0.773,-0.8,3.7,2.0
CCN1CCN(CC(=O)c2c[nH]c3ccccc23)CC1,nt,9.2,-5.6,0.741,-2.5,1.9,1.2
CC(C)Cc1nn2c(=O)cc(CSCC(=O)Nc3ccccc3F)nc2s1,i,0.6,-8.8,0.675,2.3,5.3,5.2
COc1cc(NC(=S)NCc2ccc(S(N)(=O)=O)cc2)c(OC)cc1Cl,i,1.4,-33.6,nt,-1.1,nt,1.1
CCN(CC)C1=NC=CC(c2ccccc2)=CC1C (stereo unspecified),i,-3.6,4.2,0.663,0.8,0.4,-3.7
O=C(/C=C/c1ccccc1)NC(=S)N1CCSCC1,i,-3.2,46.9,0.711,-3.5,2.3,1.9
CCOC(=O)Cc1csc(NC(=O)COC(=O)/C=C/c2ccc(OC)cc2)n1,i,0.7,-3.9,0.648,-2.7,5.1,-1.6
CSc1ncc(C(=O)Nc2ccc(Br)cn2)c(C)n1,i,-1.4,7.5,0.67,2.4,-0.9,-32.0
COc1ccc2cc(CN(CC3CCCO3)C(=S)Nc3ccccc3)c(=O)[nH]c2c1 (stereo unspecified),i,9.6,-14.1,0.657,7.0,3.4,5.2
O=C(NC(=S)Nc1ccc2c(c1)OCCO2)c1cccc2ccccc12,i,-7.7,-7.6,0.783,5.5,6.8,-0.9
Cc1nc(NCCN2CCOCC2)c2nnn(Cc3ccccc3Cl)c2n1,nt,-4.7,-1.1,0.704,-6.3,0.4,2.8
Cc1ccc(OCC(=O)N/N=C/c2ccncc2)cc1,nt,-0.2,-9.7,nt,1.4,nt,2.8
COc1ccc(CCNS(=O)(=O)c2cnc(Cl)c(Br)c2)cc1OC,i,3.9,-5.0,0.672,0.3,-0.6,0.6
COC(=O)c1ccc(N2C(=O)C3CC(C)=C(C)CC3C2=O)cc1 (stereo unspecified),i,0.8,nt,0.708,1.7,2.8,5.1
CCCCNC(=O)c1onc(CS(=O)(=O)c2ccccn2)c1C(=O)NCCCC,i,-1.4,nt,0.663,-1.1,-2.4,-0.7
COc1ccc(/C=N/Nc2ccc(C(=O)O)cc2)c(OC)c1OC,i,17.2,nt,nt,2.2,nt,0.5
CC(=O)N[C@@H](Cc1c[nH]c2ccccc12)C(=O)NCc1ccccc1,i,9.1,-6.1,0.658,1.2,0.7,0.4

# B2AR ag, entries above that show a hit
SMILES	FGF22 binding	B2AR ag	ALR inh	LANA-H2B inh	UCH37 inh	HNF4A DNA FP
O=C(/C=C/C=C/c1ccccc1)CC1(O)C(=O)N(CCc2ccccc2)c2ccccc21 (stereo unspecified)	nt	93.1*	2.0	4.5	nt	0.5

# (further entries)
compound,FGF22 binding,B2AR ag,ALR inh,E coli growth,LANA-H2B inh,UCH37 inh,HNF4A DNA FP
CSc1nnc(C)c(=O)n1COC(=O)COc1ccccc1C,nt,0.4,nt,0.716,2.8,0.3,0.0
O=C(NCc1ccco1)C1c2ccccc2Oc2ccccc21,nt,0.4,47.7,0.806,0.4,4.9,-1.1
Cn1c(=N)n(CC(O)c2cccc3ccccc23)c2ccccc21 (stereo unspecified),nt,7.8,-10.8,0.747,6.6,1.5,-0.5
Cc1ccc(CNC(=O)CCc2cn(C)c3ccccc23)cc1,i,-0.5,6.5,0.669,-3.4,2.6,-2.7
COc1ccccc1N1CCN(C(=O)CCC(=O)N2CCN(c3ccc(F)cc3)CC2)CC1,i,7.5,75.0,0.708,-5.1,3.4,1.5
Cc1c(C(=O)Oc2ccc(Cl)cc2)n(C)oc1=O,i,0.2,nt,0.694,4.1,5.3,1.5
CCNC(=S)Nc1cc(C)ccn1,nt,4.2,1.5,0.679,3.6,3.4,1.9
COc1cccc(CN2CCN(Cc3c(C)nn(C(C)C)c3C)CC2CCO)c1 (stereo unspecified),i,3.4,-12.3,0.7,i,3.2,1.4
Cc1cc(S(=O)(=O)N2CCCCC2)ccc1OCC(=O)N1CCOCC1,i,-3.3,-9.3,0.706,0.2,4.4,-1.8
COC(=O)c1ccc(NS(=O)(=O)c2cccc3cccnc23)cc1,nt,14.5,45.9,0.693,4.6,0.7,2.4
Cc1ccccc1CN1C(=O)[C@@H]2Cc3c([nH]c4ccccc34)C(C)(C)N2C1=O,i,-0.1,-4.7,nt,0.5,0.6,14.5
Cc1ccc(-c2noc(CCC(=O)NCCc3ccccc3Cl)n2)cc1,nt,4.0,-8.3,0.726,4.0,2.3,-2.7
CN(Cc1ccccc1)C(=O)COC(=O)c1cc(Cl)nc(Cl)c1,i,2.0,-1.7,0.726,-2.2,1.6,3.4
COc1cc2[nH]c(=S)nc(NCCc3ccc(C)cc3)c2cc1OC,i,-3.7,nt,0.729,nt,-14.4,2.1
Cc1ccc(Nc2nc3ccccc3s2)cc1,+,13.1,nt,0.725,-5.3,1.6,-3.1
